# High-throughput results: PubChem, several laboratories
# CBX7 inh: CBX7 chromodomain binding inhibitors, primary screen, biochemical, AlphaScreen | Chromobox protein homolog 7 (Homo sapiens), O95931 | AlphaScreen His6-CBX7 / biotin-H3K27me3 peptide binding; stronger effect = lower value | normalised signal (fraction of DMSO) (no concentration beside the values) | 66,000 tested, 1.1% active | AID 1224903, 2016; in the data active = normalised signal below about 0.5;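 also: 100 nL library stock added to about 20 µL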
# Target sequence (O95931 whole entry, looked up): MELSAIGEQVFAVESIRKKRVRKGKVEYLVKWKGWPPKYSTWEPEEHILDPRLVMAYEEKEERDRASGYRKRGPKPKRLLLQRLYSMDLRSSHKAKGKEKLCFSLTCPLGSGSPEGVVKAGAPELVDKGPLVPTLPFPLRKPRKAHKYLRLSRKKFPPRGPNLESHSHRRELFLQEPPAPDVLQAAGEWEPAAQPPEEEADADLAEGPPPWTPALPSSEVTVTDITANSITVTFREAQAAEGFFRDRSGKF
# CBX7 inh z-score: further read-out of CBX7 inh, marked with its call; z-score; measured here: z-score of CBX7 signal; some inactives read as strong as hits; reference of the scale not given here;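 same signal on another scale; lower means less binding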
# The depositor's hits bear a star; & = joins results of further samples. These rows are one share of the data, so the mix of outcomes need not match the whole.
SMILES,CBX7 inh,CBX7 inh z-score
O=C(NC1CCCCCCC1)C1c2ccccc2C(=O)N1CCc1ccccc1 (configuration not stated),1.05,1.87
Cc1nn(C)c(C)c1S(=O)(=O)N(CC(=O)N1CC(C)CC(C)C1)c1ccc(C(C)C)cc1 (configuration not stated),1.25,1.77
O=C1Nc2cc(C(=O)N3CCN(Cc4ccccc4)CC3)ccc2Sc2ccccc21,1.16,1.2
CCc1ccc(S(=O)(=O)Nc2ccc3oc4c(c3c2)CC(C(C)(C)C)CC4)cc1 (configuration not stated),0.783,-6.06
Cc1ccc(-c2cc(C(F)(F)F)n3ncc(C(=O)Nc4ccccc4C)c3n2)cc1,1.09,0.965
COc1ccc(CCNC(=O)C2CCCN(S(=O)(=O)c3cccs3)C2)cc1OC (configuration not stated),1.05,0.842
N#Cc1ccc(C(=O)Nc2nc(-c3ccc(Oc4ccccc4)cc3)cs2)cc1,1.04,0.78
COc1ccc(NC2c3ccccc3C(=O)N2c2ccc(Cl)cc2)cc1 (configuration not stated),0.419*,-15.7*
Cc1[nH]c2ccc(OC(F)(F)F)cc2c1CCNC(=O)c1ccc(F)c(F)c1,0.67,-6.01
COc1ccc(C(=O)N(Cc2cccs2)C2CCS(=O)(=O)C2)cc1 (configuration not stated),1.14,1.28
COc1ccccc1Nc1ncc(C(=O)N2CCCCC2)c2ccccc12,1.29,2.34
Cc1ccc2nc(-c3ccccc3)cc(C(=O)NCCOc3ccccc3)c2c1,1.06,1.53
Cc1ccccc1OCc1nc(C#N)c(NCCN2CCOCC2)o1,1.04,1.87
CCOc1ccc(-c2cn(-c3cc(C)cc(C)c3)c(=O)[nH]2)cc1Cl,0.932,-1.63
Cc1cc(N2CCCC2)nc(-c2ccccc2O)n1,1.13,0.627
O=C(Nc1ccc2oc(-c3cccnc3)nc2c1)c1ccc(F)cc1,1.07,1.18
Cc1ccc(OCc2nc(C#N)c(NCCN(C)C)o2)cc1,1.04,0.23
COc1cccc(-c2nc(CS(=O)(=O)CC(=O)Nc3cccc(C(F)(F)F)c3)c(C)o2)c1,1.07,1.81
COc1ccc(-n2c(Cc3cc(=O)[nH]c(=O)[nH]3)nnc2SCc2ccccc2Cl)cc1,0.84,-2.45
COc1cccc(NC(=O)C2c3cc(OC)c(OC)cc3C(=O)N3CCc4ccccc4C23)c1 (configuration not stated),1.05,0.788
CCCN(C(=O)Cc1c(C(=O)O)[nH]c2ccc(Cl)cc12)c1ccc(OCC)cc1,1.08,0.751
CC(NC(=O)C1CCN(Cc2cnn(-c3ccccc3)c2-n2cccc2)CC1)c1ccccc1 (configuration not stated),1.02,0.742
COc1ccc(CCNC(=O)CCc2c(C)nc3cc(-c4ccccc4)nn3c2C)cc1OC,1.04,1.07
COc1ccc(-c2cc(C(=O)Nc3c(F)cc(F)cc3Br)no2)cc1,1.29,1.67
FC(F)(F)c1cc(-c2ccccc2)nc(-n2cncn2)n1,0.998,-0.0406
COC(=O)C(CC(C)C)NC(=O)CSc1nc2ccccc2o1 (configuration not stated),0.867,-2.1
O=C(C1CCC1)N1CCc2cc(S(=O)(=O)N3CCN(C4CCCCC4)CC3)ccc21,1.04,1.31
Cc1ccn2cc(-c3cccc(S(=O)(=O)N4CCOCC4)c3)nc2c1,1.01,0.442
CCN(CCCNC(=O)c1cc(=O)[nH]c2ccc(S(=O)(=O)N3CCCCC3)cc12)c1ccccc1,1.04,1.42
Cc1ccc(Nc2c3c(nc4ccccc24)CCC3)c(Br)c1,0.86,-2.73

# 4 of these compounds in a different format.
molecule: CC(NC(=O)C1CCN(Cc2cnn(-c3ccccc3)c2-n2cccc2)CC1)c1ccccc1 (configuration not stated)
  CBX7 inh: 1.02	CBX7 inh z-score: 0.742
molecule: COc1ccc(CCNC(=O)CCc2c(C)nc3cc(-c4ccccc4)nn3c2C)cc1OC
  CBX7 inh: 1.04	CBX7 inh z-score: 1.07
molecule: COc1ccc(-c2cc(C(=O)Nc3c(F)cc(F)cc3Br)no2)cc1
  CBX7 inh: 1.29	CBX7 inh z-score: 1.67
molecule: FC(F)(F)c1cc(-c2ccccc2)nc(-n2cncn2)n1
  CBX7 inh: 0.998	CBX7 inh z-score: -0.0406

# Going on with the list:
SMILES,CBX7 inh,CBX7 inh z-score
CC12CC3(C)CC(C(=O)O)(C1)CC(C(=O)O)(C2)C3,0.905,-1.04
O=C(CCc1nc(-c2ccccc2F)no1)N1CCN(c2ccc(F)cc2)CC1,0.917,-1.79
O=C(Nc1cccc(F)c1)c1cccnc1NCc1ccccc1,1.4,1.41
CC1(C)CC(=O)c2c(nn(-c3ccccc3)c2-c2ccc(F)cc2)C1,1.08,0.839
COc1c(/C=C/C(=O)N2CCCCC2)c(O)c(OC)c2occc12,1.03,0.673
COc1ccc(Nc2cc(C)nc3ccc(OC)cc23)cc1,0.906,-1.82
O=C1CN(C(=O)CCC2CCCC2)C(c2ccccc2)c2cc(Br)ccc2N1 (configuration not stated),0.913,-0.367
O=C(CSc1nc2ccccc2o1)Nc1ccccc1F,1.03,0.837
Cc1cccc(N2C(=O)CC(N3CCN(c4ncccn4)CC3)C2=O)c1 (configuration not stated),1.01,0.0679
Cc1cc(C(=O)Nc2ccc(C)c(Cl)c2)n(-c2ccccc2)n1,1.08,0.638
COc1ccc(-n2nc(C(=O)Nc3ccc(C(C)C)cc3)c3ccccc3c2=O)c(OC)c1,1.02,0.581
O=C(c1cc2c(s1)-c1ccccc1OC2)N1CCN(c2ccc(Cl)cc2)CC1,1.04,0.952
COc1ccc(CN(C(=O)c2oc3ccccc3c2C)C2CCS(=O)(=O)C2)cc1OC (configuration not stated),0.934,-0.837
CNC(=O)c1cc(NC(=O)CCn2nc(-c3ccc(C)cc3)c3ccccc3c2=O)ccc1OC,0.975,-0.705
O=C(NCCc1c[nH]c2ccccc12)C(=O)Nc1ccc(F)cc1,0.92,-0.866
COc1ccc(OCCCn2c(C3CC(=O)N(Cc4ccccc4)C3)nc3ccccc32)cc1 (configuration not stated),0.872,-0.8
N#Cc1ccc(NC(=O)c2cc(-c3cccc(Cl)c3)on2)cc1,1.07,2.04
CCC(=C(c1ccc(OC)cc1)c1ccc(OC)cc1)c1cn(CC(O)CN2CCOCC2)c2ccccc12 (configuration not stated),0.414*,-3.97*
Cc1ccc(NC(=O)C2CCN(S(=O)(=O)c3cccc4cccnc34)CC2)cc1,0.959,-0.179
CCN1C(=O)C(O)(c2c(C)[nH]c3ccccc23)c2ccccc21 (configuration not stated),1.05,0.79
Cc1nnc(NC(=O)c2ccc(S(=O)(=O)N3CCCCC3)cc2)o1,0.021*,-1.3*
Cc1ccc2c(c1)-c1c(cnn1CC(=O)Nc1nc3ccccc3s1)CO2,0.996,-0.0907
CC(=O)NC(c1ccccc1)c1c(O)ccc2ccccc12 (configuration not stated),0.958,-0.416
c1ccc(-c2ccc(-c3nc(-c4ccncc4)no3)cc2)cc1,1.21,3.25
CCCCNC(=O)CCCN1C(=O)COc2ccc(C)cc21,0.999,-0.0303
Cc1nn(Cc2ccc(-c3nc(-c4nonc4N)no3)cc2)c(C)c1Cl,1.02,0.528
COc1cccc(C2(c3cccc(OC)c3)CC2C(=O)Nc2cccc(Br)c2)c1 (configuration not stated),1.02,0.0737
O=C(O)c1ccc(N2CCOCC2)c(N2C(=O)C3C4C=CC(C4)C3C2=O)c1 (configuration not stated),1.12,1.37
COc1ccc(OC)c(NC(=O)CC2Nc3ccccc3NC2=O)c1 (configuration not stated),1.11,1.92
Cc1ccc(N2CCN(CC(O)COc3ccc(Br)cc3)CC2)cc1 (configuration not stated),1.18,0.376

# Fetched by compound from above, 3 records:
SMILES,CBX7 inh,CBX7 inh z-score
c1ccc(-c2ccc(-c3nc(-c4ccncc4)no3)cc2)cc1,1.21,3.25
Cc1cc(C(=O)Nc2ccc(C)c(Cl)c2)n(-c2ccccc2)n1,1.08,0.638
Cc1nn(C)c(C)c1S(=O)(=O)N(CC(=O)N1CC(C)CC(C)C1)c1ccc(C(C)C)cc1 (configuration not stated),1.25,1.77

# The listing continues:
SMILES,CBX7 inh,CBX7 inh z-score
Cc1cc(C)cc(NC(=O)Cn2c(C(F)(F)F)nc3ccccc32)c1,0.974,-0.301
CC(C)(C)CC(=O)Nc1nc2ccc(S(C)(=O)=O)cc2s1,1.03,0.878
Cc1ccc(OCC(=O)Nc2cc(-c3nc4cc(C)ccc4o3)ccc2Cl)cc1,1.16,3.38
O=C1c2ccccc2C(Nc2ccccc2C(F)(F)F)N1Cc1ccccc1 (configuration not stated),0.748,-6.81
COc1ccc(NC(=O)CSc2nc(-c3ccc(C)cc3)[nH]c2-c2ccccc2)cc1OC,0.733,-12.7
CN1CCN(C(=O)Cn2ncc3ccsc3c2=O)CC1,0.964,-0.461
COc1ccccc1NC(=O)C1CCN(S(=O)(=O)c2cccc3cccnc23)CC1,1.01,0.0598
Cc1ccc2cc(CCNS(C)(=O)=O)c(=O)[nH]c2c1C,0.948,-0.937
O=C(Nc1ccccc1-c1nc2ccccc2[nH]1)c1ccc(Oc2ccccc2)cc1,1.02,0.256
Cc1cc(C)c2c(NC(=O)NC3CCCCC3)n[nH]c2n1,1.02&0.994,0.64&-0.149

# Complete entries as entered above. Order of values: CBX7 inh | CBX7 inh z-score
# Cc1cc(C)c2c(NC(=O)NC3CCCCC3)n[nH]c2n1 across the screens: 1.02&0.994 | 0.64&-0.149
# COc1ccc(NC(=O)CSc2nc(-c3ccc(C)cc3)[nH]c2-c2ccccc2)cc1OC across the screens: 0.733 | -12.7
# Cc1ccc2cc(CCNS(C)(=O)=O)c(=O)[nH]c2c1C across the screens: 0.948 | -0.937
# COc1ccccc1NC(=O)C1CCN(S(=O)(=O)c2cccc3cccnc23)CC1 across the screens: 1.01 | 0.0598
# Cc1cc(C)cc(NC(=O)Cn2c(C(F)(F)F)nc3ccccc32)c1 across the screens: 0.974 | -0.301

# Other compounds follow:
SMILES,CBX7 inh,CBX7 inh z-score
O=C(Nc1nccs1)C1CCN(S(=O)(=O)c2cnc[nH]2)CC1,0.859,-2.31
Cc1ccc2oc(-c3cccc(NC(=O)c4cc5ccccc5o4)c3)nc2c1,0.948,-0.827
COc1ccccc1-c1nc(SCc2cccc(Br)c2)n[nH]1,0.924,-1.21
CC1=C(C(=O)Nc2cccc(C)n2)C(c2ccc(C)cc2)C2=C(CC(C)(C)CC2=O)N1 (configuration not stated),1.65,1.32
CCOc1ccc(NC(=O)c2cc(-c3ccccc3)nc3c(Cl)cccc23)cc1,0.962,-0.594
COc1ccccc1Nc1ncnc2ccccc12,1.08,1.53
Cc1ccc2c(c1)c(C)c(C)n2CC(O)CN1CCCCC1C (configuration not stated),0.929,-2.31
Cc1ccc2nc(Nc3ccccc3C)nc(-c3ccccc3)c2c1,1.69,11.5
CC(C)CCNC(=O)c1cnn2c(C(F)(F)F)cc(-c3cccs3)nc12,1.1,2.59
O=C(Nc1cccc(C(F)(F)F)c1)c1csc2c1CCCCC2,1.31,12
CCC(=O)N1CCc2cc(S(=O)(=O)NC(C(=O)NC(C)c3ccccc3)C(C)C)ccc21 (configuration not stated),0.984,-0.319
COc1ccc(CN2C(=O)CCC2(C)C(=O)NC2CCCCC2)cc1 (configuration not stated),0.839,-2.64
CCN(CC)c1ccc(-c2nnc(-c3ccncc3)o2)cc1,1.14&1.22,2.24&0.983
CN(CC#CCC(O)(c1ccccc1)C1CCCC1)Cc1ccccc1 (configuration not stated),1.06,0.922
Cc1onc(-c2ccccc2)c1C(=O)NCc1ccncc1,1.05,1.82
CCNC(=O)c1ccc2c3c(onc13)-c1ccccc1C2=O,0.6,-6.24
Cc1ccc(-c2nn(C)c(=O)c3ccccc23)cc1S(=O)(=O)N1CCN(c2ccccc2)CC1,0.873,-3.61
CCC1CCCCN1C(=O)c1nn2c(C(F)(F)F)cc(-c3ccccc3)nc2c1Cl (configuration not stated),0.887,-0.763
O=c1cc(Cc2nnc(SCc3cccc(Cl)c3)n2-c2ccc(F)cc2)[nH]c(=O)[nH]1,1.12,0.249
Cc1ccc(C)c(Cc2c(C)nc3c(C(=O)N4CCc5ccccc5C4)cnn3c2C)c1,0.931,-2.03
CCC(=O)N1CCc2cc(S(=O)(=O)NCCC(=O)N3CC(C)CC(C)C3)ccc21 (configuration not stated),1.01,0.433
COC(=O)c1cc2sc(Cl)cc2n1Cc1cc(C)ccc1C,1.21,6.27
Cc1c(C(=O)Nc2ccc(F)cc2Cl)sc2ncn(CC(=O)N3CCCCC3)c(=O)c12,1,0.0108
Cc1ccc(CCN2CC(C(=O)NC(C)C)CC2=O)cc1 (configuration not stated),1.03,0.671
CCN(CC)S(=O)(=O)c1ccc2c(c1)N(CC(=O)NC1CC1)C(=O)CO2,0.994,-0.293
c1ccc(Nc2nc3ccccc3n2CCOc2ccccc2)cc1,0.977,-1.21
CCCCOc1ccc(CC2CCC(=O)NC2=O)cc1 (configuration not stated),1.01,0.152
O=C(NCCc1c[nH]c2ccccc12)c1csc2c1CCCC2,0.875,-4.07
OCCN(CC#CC(O)(c1ccccc1)C1CCCCC1)CCO (configuration not stated),1.06,0.678
Cc1sc2ncn(CC(=O)NCCCC(=O)Nc3ccc(F)cc3)c(=O)c2c1C,1.06,0.63
CCN(CC)CC(C)CNC(=O)c1cc(=O)[nH]c2ccc(S(=O)(=O)N3CCCCCC3)cc12 (configuration not stated),1.04,1.72
COc1ccc(Cn2c(CCC(=O)NCCc3ccc(OC)c(OC)c3)nc3cccnc32)cc1,0.907,-1.78
Cc1ccc(NC(=O)c2cc(S(=O)(=O)N3CCCCCC3)ccc2F)cc1F,1.08,1.4
O=C(NCc1ccc(Cl)cc1)c1nn2c(C(F)(F)F)cc(-c3ccc(F)cc3)nc2c1Cl,1.08,0.52
Fc1ccccc1Cn1c(-c2cncs2)nc2ccccc21,0.973,-0.678
